Bioassay records as filed in PubChem BioAssay.
Six1-Eya2 blk: blocks human Six1 binding to Eya2 | Q15475+O00167 | AlphaScreen GST-Six1/His-Eya2 binding, biochemical; hits give low values; control for the full effect not named in the record | activity change, % (test concentration not listed) | 0.56% of 360,000 active | AID 651725; in the data active = activity change below about -65%; inconclusive = about -30% to -65%; inactive = above about -30%; note: % is set by controls: 0 for no effect and ±100 for the full control effect; compound concentration not given in the record
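Six1/Eya2 binding was read as AlphaScreen signal after compounds were pinned into GST-Six1 plus His-tagged Eya2 (5X stock 250/500 nM) in pH 8.0 Tris/NaCl/TCEP buffer, beads added, then incubated 1 h, 37 C, dark.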
TRPML1 agonist: human mucolipin-1 channel agonism; 0.12% of 410,000 active; activation, % (test concentration not listed); AID 624414; Q9GZU1; TRPML1-expressing cells, Ca2+ dye fluorescence, FDSS; host cell line not named in the record; reference of the full effect not given here; in the data active = activation above about 50%; inconclusive = about 30% to 50%; inactive = below about 30%; note: 0% is about no effect; the text of the record puts the active cut at 80%
Target sequence (Q9GZU1 whole entry, looked up): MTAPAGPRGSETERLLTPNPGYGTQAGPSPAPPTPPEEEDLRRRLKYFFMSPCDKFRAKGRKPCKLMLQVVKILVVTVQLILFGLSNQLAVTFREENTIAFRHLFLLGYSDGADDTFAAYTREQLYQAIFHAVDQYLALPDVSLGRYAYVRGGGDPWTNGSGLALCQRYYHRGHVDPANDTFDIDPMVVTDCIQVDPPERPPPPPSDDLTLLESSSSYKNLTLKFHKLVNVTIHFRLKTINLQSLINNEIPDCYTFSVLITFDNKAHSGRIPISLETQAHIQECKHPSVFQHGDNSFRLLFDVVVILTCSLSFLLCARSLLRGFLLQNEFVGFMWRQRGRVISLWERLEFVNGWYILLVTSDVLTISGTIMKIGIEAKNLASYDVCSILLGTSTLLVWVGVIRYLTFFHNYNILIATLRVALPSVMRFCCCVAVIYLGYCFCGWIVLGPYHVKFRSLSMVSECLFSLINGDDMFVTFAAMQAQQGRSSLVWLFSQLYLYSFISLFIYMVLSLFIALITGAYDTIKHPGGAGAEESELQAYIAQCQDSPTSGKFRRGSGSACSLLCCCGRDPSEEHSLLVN
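In this qHTS format, compounds were pin-transferred onto Ca8-dye-loaded TRPML1-DL cells induced with Tet overnight, and intracellular Ca2+ fluorescence was recorded kinetically for 110 s after a 10 s baseline. A subsequent 4uM final 54-4 (EC80) addition followed by a second 110 s read served as the antagonist phase.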
D2 ag: human D2 receptor agonism in beta-arrestin assay; DiscoveRx PathHunter D2 beta-arrestin, luminescence, 90 min; 100% = 57 uM dopamine signal; AID 624465; P14416; activation, % (test concentration not listed); 0.084% of 360,000 active; in the data active = activation above about 40%; inconclusive = about 15% to 40%; inactive = below about 15%; note: compound concentration not given in the record; the text of the record calls up to 30% inactive
Target sequence (P14416 whole entry, looked up): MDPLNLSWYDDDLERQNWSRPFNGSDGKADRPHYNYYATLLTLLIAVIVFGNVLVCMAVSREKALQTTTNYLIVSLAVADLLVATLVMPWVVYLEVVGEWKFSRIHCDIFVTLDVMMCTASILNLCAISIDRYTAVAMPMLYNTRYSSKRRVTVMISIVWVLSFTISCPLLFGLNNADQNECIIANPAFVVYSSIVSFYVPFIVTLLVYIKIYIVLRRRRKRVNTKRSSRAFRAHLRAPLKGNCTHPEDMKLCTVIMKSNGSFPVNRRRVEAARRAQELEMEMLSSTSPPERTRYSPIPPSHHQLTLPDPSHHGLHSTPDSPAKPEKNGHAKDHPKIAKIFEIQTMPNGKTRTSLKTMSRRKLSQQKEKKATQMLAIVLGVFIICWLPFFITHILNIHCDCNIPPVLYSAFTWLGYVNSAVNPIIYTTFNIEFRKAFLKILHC
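DiscoveRx PathHunter D2 beta-arrestin cells (2,100/well) attached overnight, then compound-stimulated 90 min at 37 C in HBSS/10 mM HEPES/0.1% Tween-20 buffer; beta-galactosidase complementation read by luminescence after 1 h at ambient temperature. Dopamine 57 uM final (EC100) as control.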
PINK1 modulator: changes PINK1 expression | Potency, µM (top dose mostly 76.6 µM), for inactives: at the highest dose activation (PINK1 increase), hits mostly activators | 0.2% of 410,000 active | AID 624263 | PINK1 immunofluorescence, high-content cytometry, 24 h; active = well fitted activation curve with a large enough effect; inconclusive = small, poorly fitted or top-dose-only effect; inactive = flat fitted curve, though single readings scatter; cell line not stated here;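 note: potency is the fitted concentration of half-maximal effect; % of control where 0% means no effect; nearly all actives have a fitted effect of over 65% in size; a mitochondrial uncoupler was the plate control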
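Stable cell line treated 24 h with compounds at 5 concentrations (CCCP controls), then fixed and immunostained for PINK1 plus nuclear and cell stains; PINK1 immunofluorescence quantified by laser-scanning microplate cytometry.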
TRPML1 blocker: inhibitors of human TRPML1 channel; Q9GZU1; TRPML1-inducible cells, Ca2+ dye fluorescence, FDSS; hits give low values; inhibition of EC80 agonist-evoked calcium signal; activity change, negative = inhibition, % (test concentration not listed); 0.02% of 390,000 active; AID 624415; in the data active means activity change below about -50%; inconclusive means about -30% to -50%; inactive means above about -30%;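 note: stimulus is agonist 54-4 at its EC80 concentration; % is set by controls: 0 for no effect and ±100 for the full control effect; compound concentration not given in the record; the text of the record puts the active cut at -80%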
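Calcium fluorescence in TRPML1-DL cells induced overnight with Tet: a 110 s read after compound pin addition, then a 110 s antagonist read after challenge with 54-4 at 4 uM final (EC80).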
D2 PAM: positive allosteric modulators of human D2 dopamine receptor; P14416; 0.23% of 360,000 active; DiscoveRx D2 beta-arrestin cells, luminescence, 90 min; 100% = 57 uM dopamine signal; potentiation, % (concentration not given with the values); active = potentiation of 50% or more; inconclusive = 30% to 50%; inactive = 30% or less;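 note: compound concentration not given in the record; tested on top of an EC20 dose of dopamine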
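D2 cells co-treated with compound plus 50 nM dopamine (EC20) for 90 min at 37 deg C to detect potentiation. Beta-arrestin recruitment was read as enzyme-fragment luminescence after 1 h at ambient temperature. Full response was set by 57 uM dopamine.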
Numbers without * were called inactive; ? = inconclusive; nt = no result given; [ ] = dose if it differs, or a comment.

Values run as follows: D2 ag	TRPML1 agonist	D2 PAM	TRPML1 blocker	Six1-Eya2 blk	PINK1 modulator
1. CCCN1CCN(C(=O)C2CCN(S(=O)(=O)c3ccc4c(c3)oc(=O)n4C)CC2)CC1
  -1.0	-0.7	-2.5	17.0	-1.4	1.7%
2. COc1ccc2c(c1)c(=O)oc1c(C)c(OCC(=O)N3CCc4ccccc4C3)ccc12
  -2.0	0.2	-7.1	-10.6	-1.1	1.6%
3. COc1cccc(CC(=O)NNC(=O)c2ccc3c(c2)OCO3)c1
  -3.3	0.4	-5.6	5.2	-4.8	-0.8%
4. CC(=O)N1Cc2ccccc2C(C)CC12CCCCC2 (configuration not stated)
  -1.7	1.7	3.2	-2.8	9.7	4.3%
5. CC(CCCC(C)(C)O)CC1C2=C(CCCC2=O)OC2=C1C(=O)CCC2 (configuration not stated)
  0.0	0.4	2.2	-12.9	15.6	-0.1%
6. CN(CCCCCC(=O)/C=N/O)Cc1ccccc1
  -1.8	0.3	-15.6	-1.1	6.5	-0.4%
7. CC(=O)N1CCC(N(C(=O)Nc2ccc(C)c(F)c2)C(C)C)CC1
  nt	-0.9	nt	1.0	nt	0.3%
8. COc1ccc(C(CNC(=O)c2ccc(-c3cccc(C(F)(F)F)c3)o2)N2CCOCC2)cc1 (configuration not stated)
  -2.9	9.8	-16.4	11.0	-1.1	20.4%
9. Cn1c(SCC(=O)Nc2sc3c(c2C#N)CCC3)nnc1C1COc2ccccc2O1 (configuration not stated)
  -0.8	-0.5	-8.9	15.5	-6.3	15.5%[38.3 µM]
10. CC(C)N=C1NN=C(c2cccs2)CS1
  -3.5	0.3	-30.8	-1.9	-1.6	-1.6%
11. Cc1onc(-c2ccccc2)c1C(=O)N=C(N)c1ccc(C(F)(F)F)cc1
  4.1	-0.1	-6.5	3.4	7.0	1.4%
12. Cc1ccc(NC(=O)CSCC(=O)N(CCC(C)C)c2c(N)n(Cc3ccccc3)c(=O)[nH]c2=O)cc1
  0.8	-1.1	12.0	17.3	-0.4	6.7%
13. Nc1nc(Cl)cc(Oc2ccccc2F)n1
  -1.9	-0.4	-2.2	5.9	2.9	-0.1%
14. C#CCN1C=CC(=O)[C@@H](OC(=O)NCCC)[C@H]1c1ccccc1Br
  -1.5	3.6	-4.1	21.4	7.6	-1.9%
15. CCc1ccc(NC(=O)[C@H](C)NC(=O)C2CCN(C(=O)[C@@H](N)CC(C)C)CC2)cc1
  -5.1	0.4	-1.3	-10.9	-5.5	0.2%
16. O=C(CCc1nc2ccccc2c(=O)[nH]1)N1CCN(S(=O)(=O)c2cccc(F)c2)CC1
  -6.2	1.3	-14.3	-19.7	1.1	0.1%
17. CCOc1ccc(N2C(=O)c3ccccc3NC2(C)CC)cc1 (configuration not stated)
  -2.3	-0.8	-5.9	-4.0	0.2	1.8%
18. Cn1cccc1C1NC(=O)c2c(sc3c2CCC(C(C)(C)C)C3)N1 (configuration not stated)
  -4.4	-0.3	-8.0	3.2	-18.8	4.1%[38.3 µM]
19. Cc1oc(-c2cc(F)ccc2F)nc1CN(C)Cc1ccc2nccnc2c1
  -6.1	-1.8	-14.9	3.0	-0.4	2.8%
20. O=C(Nc1cccc(F)c1)N1CCN(C/C=C/c2ccccc2)CC1
  -2.1	1.5	-31.3	11.5	-2.3	-1.2%

Another view of some results above.
10. CC(C)N=C1NN=C(c2cccs2)CS1
11. Cc1onc(-c2ccccc2)c1C(=O)N=C(N)c1ccc(C(F)(F)F)cc1
12. Cc1ccc(NC(=O)CSCC(=O)N(CCC(C)C)c2c(N)n(Cc3ccccc3)c(=O)[nH]c2=O)cc1
13. Nc1nc(Cl)cc(Oc2ccccc2F)n1
14. C#CCN1C=CC(=O)[C@@H](OC(=O)NCCC)[C@H]1c1ccccc1Br
15. CCc1ccc(NC(=O)[C@H](C)NC(=O)C2CCN(C(=O)[C@@H](N)CC(C)C)CC2)cc1
16. O=C(CCc1nc2ccccc2c(=O)[nH]1)N1CCN(S(=O)(=O)c2cccc(F)c2)CC1
17. CCOc1ccc(N2C(=O)c3ccccc3NC2(C)CC)cc1 (configuration not stated)
18. Cn1cccc1C1NC(=O)c2c(sc3c2CCC(C(C)(C)C)C3)N1 (configuration not stated)
19. Cc1oc(-c2cc(F)ccc2F)nc1CN(C)Cc1ccc2nccnc2c1

Assay by compound | 10 | 11 | 12 | 13 | 14 | 15 | 16 | 17 | 18 | 19
D2 ag | -3.5 | 4.1 | 0.8 | -1.9 | -1.5 | -5.1 | -6.2 | -2.3 | -4.4 | -6.1
TRPML1 agonist | 0.3 | -0.1 | -1.1 | -0.4 | 3.6 | 0.4 | 1.3 | -0.8 | -0.3 | -1.8
D2 PAM | -30.8 | -6.5 | 12.0 | -2.2 | -4.1 | -1.3 | -14.3 | -5.9 | -8.0 | -14.9
TRPML1 blocker | -1.9 | 3.4 | 17.3 | 5.9 | 21.4 | -10.9 | -19.7 | -4.0 | 3.2 | 3.0
Six1-Eya2 blk | -1.6 | 7.0 | -0.4 | 2.9 | 7.6 | -5.5 | 1.1 | 0.2 | -18.8 | -0.4
PINK1 modulator | -1.6% | 1.4% | 6.7% | -0.1% | -1.9% | 0.2% | 0.1% | 1.8% | 4.1%[38.3 µM] | 2.8%

20. O=C(Nc1cccc(F)c1)N1CCN(C/C=C/c2ccccc2)CC1

Assay by compound | 20
D2 ag | -2.1
TRPML1 agonist | 1.5
D2 PAM | -31.3
TRPML1 blocker | 11.5
Six1-Eya2 blk | -2.3
PINK1 modulator | -1.2%

Carrying on.
Values run as follows: D2 ag	TRPML1 agonist	D2 PAM	TRPML1 blocker	Six1-Eya2 blk	PINK1 modulator
21. CCOc1cc2c(cc1OCC)C(c1ccc(OC)cc1)N(c1ccccc1)C(=O)C2 (configuration not stated)
  2.5	0.7	-18.5	-7.0	0.9	0.1%
22. CC1(C)C(CSc2nc3ccccc3[nH]2)C1(Cl)Cl (configuration not stated)
  4.6	2.0	-9.9	-6.2	3.9	?
23. CC(=O)N1c2ccc(S(=O)(=O)N3CCC(C(=O)Nc4cccc(C)c4C)CC3)cc2CC1C (configuration not stated)
  -13.7	-0.9	2.2	-19.9	-1.8	-0.9%
24. CC(C)NS(=O)(=O)c1ccc(NC(=O)c2cccnc2)cc1
  -30.3	-0.1	-7.3	1.9	7.0	-0.8%
25. CCOCN(C(=O)CSc1nc2ccccc2[nH]1)c1c(C)cccc1CC
  nt	0.8	nt	1.7	nt	6.0%
26. C/C(=C\C(=O)c1ncc(C(F)(F)F)cc1Cl)N(C)C
  2.4	-0.6	-0.6	-4.0	0.0	0.2%
27. COc1cc(-c2cc(C(=O)Nc3ccc(S(=O)(=O)NCc4ccco4)cc3)c3ccccc3n2)cc(OC)c1OC
  3.0	0.5	8.8	-12.9	3.3	5.3%
28. O=C(O)[C@H](Cc1ccccc1)N1Cc2ccccc2C1=O
  -3.5	0.2	-7.1	36.3	-4.7	0.4%
29. COc1cc(C(=O)Nc2ccc(OCc3cc(=O)n4cccc(C)c4n3)cc2)cc(OC)c1OC
  nt	2.5	nt	-17.9	nt	0.7%
30. Cc1cc(C(=O)NCCc2ccc(S(N)(=O)=O)cc2)c(C)o1
  -5.6	0.7	-1.1	25.5	1.5	-0.7%
31. Cc1ccc(Cn2c(-c3ccccc3)nc3ccccc32)cc1
  nt	5.0	nt	5.8	nt	4.0%
32. O=c1cc(CNCCCO)c2ccccc2[nH]1
  -3.9	-0.7	-1.1	1.5	-2.6	1.7%
33. CCOC(=O)[C@H]1[C@H]2COc3cc(OC)ccc3[C@@H]2N2C(=O)CN(CCc3c[nH]c4ccccc34)C(=O)[C@@]12C
  2.7	0.0	0.5	8.6	-13.2	0.5%
34. COc1ccc(N2C(=O)c3ccccc3C2=O)cc1
  0.7	-0.6	5.5	-5.0	-16.7	0.4%
35. O=C1CN(C(=O)COC(=O)CCc2ccccc2)c2ccccc2N1
  -1.0	-0.1	-28.7	15.0	-4.2	0.3%
36. COc1cc(NC(=O)Nn2cnnc2)cc(OC)c1OC
  -1.0	0.3	-1.0	1.7	-11.5	-1.7%
37. c1ccc(Cc2nnc(Sc3ccccc3)c3ccccc23)cc1
  -1.6	3.2	-18.4	61.7	-1.9	3.2%[38.3 µM]
38. Cc1ccc(N2C=Nc3ccc(C)c4nc(C)cc2c34)cc1
  -4.1	1.5	-0.8	54.3	29.9	2.2%
39. Nc1[nH]ncc1N=Nc1ccc(Cl)cc1
  -5.0	-0.2	-7.0	5.2	-18.9	0.0%
40. Cc1ccn2c(=O)nc(SCC(=O)NCc3ccccc3Cl)nc2c1
  -3.4	0.4	4.0	-8.5	-13.0	-2.8%
41. Nc1nc2nc(-c3cccs3)cc(C(F)(F)F)n2n1
  1.7	1.7	-0.2	-4.5	-3.7	0.3%
42. Cc1c([N+](=O)[O-])cc(C(=O)Nc2ccc(NC(=O)c3ccco3)cc2)cc1[N+](=O)[O-]
  ?	-0.6	5.8	11.6	1.0	13.6%
43. O=C(c1cc2cc(F)ccc2[nH]1)N1CCc2ccccc2C1
  -0.1	0.7	-11.6	-8.7	0.5	-0.4%
44. COc1ccc(CC(=O)Nc2cc(-c3nc4cccnc4s3)ccc2C)cc1
  nt	2.9	nt	-20.0	nt	0.0%
45. Cn1c(=O)c2c(ncn2CC(O)CNc2ccc(Cl)cc2)n(C)c1=O (configuration not stated)
  -4.7	-0.4	0.7	15.0	1.6	-0.6%
46. O=C(Nc1ccc(-c2csc(Nc3ccccc3)n2)cc1)c1ccccc1
  -1.5	1.6	-2.4	2.4	-2.4	20.7%
47. COc1ccccc1/C=N/OCC(=O)NCc1ccc2c(c1)OCO2
  -1.0	-0.1	-8.2	15.5	15.7	-0.1%
48. COc1cccc(C(=O)Nc2cc3c(cc2N2CCCC2)n(C)c(=O)n3C)c1
  -11.4	-1.6	-2.3	-5.7	-2.6	0.9%
49. COCCCNC(=O)/C=C/c1ccc(Cl)cc1Cl
  -1.3	-0.7	-29.3	0.9	3.6	-0.2%
50. O=C(N/N=C/c1ccc2c(c1)OCO2)c1sc2cc(Cl)ccc2c1Cl
  1.2	-0.1	-1.0	-15.4	14.4	15.4%
51. O=c1[nH]c(C2CCN(S(=O)(=O)c3ccc(C(F)(F)F)cc3)CC2)nc2c1nnn2Cc1ccc(F)cc1
  2.1	2.2	-0.4	21.6	-3.2	1.5%
52. Cc1cccc(OCC(=O)Nc2ccc(Cl)c(-c3nc4ncccc4o3)c2)c1C
  nt	4.8	nt	-0.5	nt	0.5%
53. O=C(NCc1ccccn1)c1n[nH]c(=O)c2ccccc12
  -6.2	0.0	-13.5	-1.2	-2.9	0.4%
54. CCCC(=O)N1CCCC(c2cc(C(=O)NCc3ccccc3)no2)C1 (configuration not stated)
  -2.3	-0.8	2.6	nt	0.2	1.5%
55. Cc1nnc(NC(=O)CSc2nnc(Cc3ccccc3)n2Cc2ccccc2)s1
  -4.6	-1.3	-16.6	-1.4	-8.3	-2.9%
56. COC(c1ccccc1)c1nnc(CCC(=O)N(C)CCOc2ccccc2)o1 (configuration not stated)
  10.4	1.5	-7.5	-4.8	-3.8	0.6%
